Screening results deposited in PubChem by Broad Institute.
Tgondii IFNg – inhibitors of Toxoplasma gondii growth with IFN-gamma; Toxoplasma gondii growth in IFN-gamma-treated host cells; stronger effect = lower value; reference of the scale not given here; activity change, negative = inhibition, %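 (about 20 µM by stock and volumes)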; 69,000 compounds, 3.8% hits;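 active = below -70%; inconclusive = fit judged invalid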;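 also: host cells are HeLa cells infected with Toxoplasma gondii; parasite growth read as luciferase light; one replicate is shown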
Numbers without * were called inactive; ? = inconclusive; & = joins results of further samples.

SMILES	Tgondii IFNg
COc1ccc2c3c(n(C)c2c1)[C@@H](CO)N(C)CC31CCN(C(=O)NC(C)C)CC1	5
CCn1c(C2CCCN(C(=O)c3cc4c(nc3OC)CCC4)C2)n[nH]c1=O (stereo unspecified)	9
O=C(CC1Nc2c3ccccc3nc(=S)n2C1=O)N1CCC(O)(c2cccc(C(F)(F)F)c2)CC1 (stereo unspecified)	18
Cc1nc(-c2ccccc2)sc1C(=O)Nc1c(C)nc2ccc(Cl)cn2c1=O	44
O=C(NC1CCCC1)C(c1cccs1)N(Cc1ccccc1)C(=O)Cc1cccs1 (stereo unspecified)	-18
O=C(NC1CC(=O)N(Cc2ccccc2)C1)c1cccc2ccnn12 (stereo unspecified)	16
c1ccc2c(c1)NC(c1ccc3ccccc3n1)n1cccc1-2 (stereo unspecified)	237
O=C(Cn1nc(-c2ccccc2)nc1-c1ccccc1)Nc1ccccc1	-23
CC(c1n[nH]c(=O)n1Cc1ccccc1)N1CCCC1 (stereo unspecified)	-2
CN(C)C(=O)CN1CC[C@@H](N(C)C)[C@H]1Cc1ccccc1	2
Cc1c(CN(C)c2ccc(-c3nccn3C)nn2)[nH]c2ccccc12	-96*
O=C(CCSc1cccs1)Nc1cccc(C(F)(F)F)c1	-17
O=C(NCc1ccc(F)cc1F)c1cc(-c2cnc(-c3cccnc3)nc2)cn1CC1CC1	9
O=C(Nc1ccc(F)cc1)N1CC(=O)N2[C@H](CO)[C@H](c3ccc(C4=CCCC4)cc3)[C@H]2C1	5
O=C(Cc1ccccc1)N1CCCC2(C1)Nc1cccnc1NC2=NC1CCCC1 (stereo unspecified)	36
C[C@H](CO)N1C[C@H](C)[C@H](CN(C)C(=O)Nc2ccc3c(c2)OCO3)Oc2ccc(NC(=O)Cn3cnnn3)cc2C1=O	1
CCN(CC)C1CCN(c2nc(-c3ccccc3)nc3c2CCC3)C1 (stereo unspecified)	-11
COc1ccc(C2c3c([nH]c(=O)[nH]c3=O)Nc3ccc4ccccc4c32)c(OC)c1 (stereo unspecified)	32
O=C(NC1CCc2[nH]c(=O)ccc2C1)c1ccnnc1 (stereo unspecified)	-39
CO[C@@H]1CC[C@H]2CCOc3c(C#N)cccc3C(=O)N(C)C[C@H](c3ccccc3)CC(=O)N(C)C[C@H]1O2	-8
COc1ccc(NC(=O)N2CCC3(CC2)NC(=O)c2ccc(Cl)cc2N3C)c(C)c1	460
C=CCOC1C2CCC1N(C(=O)Cc1ccc(F)cc1)C2 (stereo unspecified)	-15
C[C@H](CO)N1C[C@H](C)[C@H](CN(C)C(=O)CCC(F)(F)F)OCCCC[C@H](C)Oc2ccc(NC(=O)C3CCCCC3)cc2C1=O	-63
CCc1nccn1CC(C)NC1CCN(C(=O)c2ccc(C)cc2)CC1 (stereo unspecified)	-10
CC(=O)Oc1ccc2occ(/C=N/c3cc(=O)[nH]c(=S)[nH]3)c(=O)c2c1	-10
COc1ccccc1OCCSc1n[nH]c2nc3ccccc3n12	18
CC(O)C1C(=O)N2C(C(=O)O)=C(C3CCCO3)SC12 (stereo unspecified)	14
CN(C)C(=O)NC1COC2(CCN(C(=O)Nc3ccccc3)CC2)C1 (stereo unspecified)	7
COc1ccnc(N2Cc3cnn(Cc4ccc(F)cc4)c3C2)n1	-17
O=C(NCCn1nnn(-c2ccccc2)c1=O)C1CCC1	95
Cc1cc(C)c2[nH]c(=O)c(CN(Cc3cccs3)C(=S)NCC3CCCO3)cc2c1 (stereo unspecified)	47
CN1CCN(C(=O)NCc2cccnc2)Cc2cccnc21	-4
O=C(c1ncoc1C1CC1)N1CCCC(c2n[nH]c(=O)n2-c2ccccc2)C1 (stereo unspecified)	11
C=C1N(c2cccc(Cl)c2)C(=O)OC1(C)C	9
CCCNC(=O)N1[C@H](C#N)[C@@H](c2ccc(-c3ccccc3F)cc2)[C@H]1CO	-39
O=C(Nc1nc2ccc(F)cc2s1)c1cccnc1Cl	3
CCOC(=O)c1nc(N2CCC(Cc3ccccc3)CC2)c2ccccc2n1	-27
CC(c1ccc(-c2ccccc2CN2CCNCC2)cc1)N1CCOCC1 (stereo unspecified)	-9
Cc1oc(-c2ccccc2)cc1C(=O)N1CCN(c2ncc(C(F)(F)F)cc2Cl)CC1	-65
O=C(Nc1ccccc1)Nc1ccc(Cl)cc1SCc1ccccc1	-77*
N#Cc1c(=O)[nH]c(O)c2c(=N)oc3ccc(Cl)cc3c12	60
CCOC(=O)c1nc(NCc2ccc(F)cc2)c2ccccc2n1	-10
C[C@H]1CN([C@@H](C)CO)C(=O)c2ccccc2-c2ccccc2CO[C@@H]1CN(C)C(=O)Nc1ccnc(N2CCOCC2)c1	48
COc1c(Cl)cc(Cl)cc1CNCCCN1CCOCC1	-26
COc1ccccc1OCCN(C)C(=O)c1nc(-c2ccc(F)cc2)oc1C	68
CCS(=O)(=O)N1CC2(CN(Cc3cc(F)ccc3F)[C@H](CO)c3c2c2ccc(OC)cc2n3C)C1	-18
COc1cc(NC(=O)Cn2ncc3c(N4CCC(C)CC4)ncnc32)cc(OC)c1OC	13
C[C@H](CO)N1C[C@H](C)[C@@H](CN(C)C(=O)Nc2ccc(C(F)(F)F)cc2)Oc2ncc(C3=CCCC3)cc2C1=O	?
CCN(CC1CCCO1)C(=O)c1cc(Cn2ccc3ccccc32)[nH]n1 (stereo unspecified)	9
CC(C)Cc1cc(CNC(=O)c2ccc3c(c2)CCCO3)no1	3
Cn1c(=O)c2c(ncn2CC(=O)OCC(=O)c2ccc(F)cc2)n(C)c1=O	6
CCN1c2cc(F)ccc2C(=O)NC12CCN(C(=O)c1cc(OC)cc(OC)c1)CC2	30
COc1ccc(S(=O)(=O)N2CCC3(CC2)Nc2ccc(Cl)cc2-n2cccc23)cc1	-52
O=C(O)c1ccccc1-c1c(-c2ccccc2)ncn1Cc1cccnc1	34
CCOc1ccc2[nH]c(=O)c(CN3CCCN(C(=O)C4CC4)CC3)cc2c1	-83*
O=C(NCCc1csc(-c2ccc(F)cc2)n1)C1CCCCC1	-34
CCOC(=O)c1nc(N2CCN(Cc3ccccc3)CC2)c2ccccc2n1	2
CCCCCN1CCCC12CCN(C(=O)c1cscn1)C2 (stereo unspecified)	-63
CCc1cnc(N2[C@H](CO)[C@@H](c3ccc(C#Cc4ccccc4F)cc3)[C@@H]2C#N)s1	-54
COc1ccc(Nc2nc(C(=O)N3CCc4cc(OC)c(OC)cc4C3)cs2)cc1	52

Further structures:
SMILES	Tgondii IFNg
CC(C)N1CCC2(CC1)CC(NCc1cnn(C)c1)c1ccccc1O2 (stereo unspecified)	-34
COc1ccc(OS(=O)(=O)c2sc3ccc(Cl)cc3c2C)cc1	-104*
Cc1ccc(NC(=O)OC2CCCCC2)cc1NC(=O)OC1CCCC1	-105*
COc1cccc(-n2c(=O)c(C(=O)NCc3ccccc3C)c(O)c3cccnc32)c1	-19
Cc1ccc(C(C)NC(=O)CNCC(C)(C)CO)cc1 (stereo unspecified)	-4
Cn1ccnc1C1(O)COC2(CCN(C(=O)c3cccs3)CC2)C1 (stereo unspecified)	-24
Cc1oc(-c2cccc(F)c2F)nc1COc1cccc2ccc(C(N)=O)nc12	-6
CCCOC(NC(=O)CC)(C(F)(F)F)C(F)(F)F	18
CCn1ncc(S(=O)(=O)N2CCC3(CCCNC3)C2)c1C (stereo unspecified)	-5
CN(C)C(=O)COCC12CCCOC1CCN(CC1CC1)C2 (stereo unspecified)	-20
CN1C(=O)c2cc(NS(=O)(=O)c3ccccc3F)ccc2OC[C@@H]2O[C@H](CC(=O)NC3Cc4ccccc4C3)CC[C@H]21	-17
FC(F)(F)c1cc(NC(=S)Sc2ccc(Cl)cc2)cc(C(F)(F)F)c1	-22
COC(=O)c1cccc(NC(=O)c2c(O)c3cccnc3n(-c3ccc(F)cc3)c2=O)c1	62
Cc1nc2ccc(NC(=O)c3ccco3)cc2s1	93
OC(CCN1CCOCC1)(c1ccc(Cl)cc1)C1CCCCC1 (stereo unspecified)	-15
CSc1c(C#N)c(-c2cccs2)nn1C(=O)C(C)(C)C	-10
CSc1nnc(CC2CCN(c3cc(NC(C)C)ncn3)CC2)n1C	1
CC(=O)N1CCC(C(=O)NCc2ccccc2)(N(Cc2cccc(Cl)c2)C(=O)c2ccc(C)cc2)CC1	-48
O=C1Cc2cc(CCN3CCN(c4nsc5ccccc45)CC3)c(Cl)cc2N1	-81*
O=C(NCCCN1CCCCC1)c1csc(-c2ccc(N3CCCC3)nc2)n1	16
CN(C)C(=O)C[C@H]1CC[C@H]2[C@@H](COc3ccc(NC(=O)C4CCCCC4)cc3C(=O)N2C)O1	17
COC(=O)c1c(NCCc2c[nH]c3ccccc23)c2cccc(Cl)c2[nH]c1=O	33
O=C(Cn1ncc2c(N3CCCCC3)ncnc21)NCCCc1ccccc1	84
COc1cccc(CN2CC3(C2)CN(S(C)(=O)=O)[C@H](CO)c2[nH]c4cc(OC)ccc4c23)c1	-4
COC(=O)c1ccc(NC(=O)c2c(O)c3cccnc3n(-c3ccc(F)cc3)c2=O)cc1	4
CCCc1cc2c(cc1NC(=O)Cn1cc(C(C)C)nn1)OCO2	7
Cn1c(CCC(=O)Nc2cccc(C(=O)N3CCOCC3)c2)nc2ccccc21	-17
N#Cc1cccc(-c2ccc(C3[C@@H]4CN(Cc5ccccc5)C[C@H]3N4)cc2)c1 (stereo partly specified)	-21&-52
Cc1cc(C(=O)NCC2CCN(c3cnn(C)c(=O)c3)C2)ccc1O (stereo unspecified)	-12
CCOc1ccc2nc(N3CCCC(C(=O)N(C)Cc4ccc5nccnc5c4)C3)nc(C)c2c1 (stereo unspecified)	-9
CCc1cc(Cl)c(OC)c(C(=O)NC[C@@H]2CCCN2CC)c1O	-14&1
CO[C@H]1CC[C@H]2CCOc3c(C#N)cccc3C(=O)N(C)C[C@@H](c3ccccc3)CC(=O)N(C)C[C@@H]1O2	-19
CCc1nc(-c2ccc(Cl)cc2)cs1	17
CCc1ccc2oc(=O)cc(CN3CCN(Cc4nc(-c5cc(C)ccc5C)oc4C)CC3)c2c1	-24
COc1ccc(-n2c(=O)c(C(=O)NC3CCCCC3)c(O)c3cccnc32)cc1	36
CS(=O)(=O)c1snnc1C1CCN(Cc2ccnn2C2CCCCO2)CC1 (stereo unspecified)	54
CCOc1cc(C(=O)NCCc2csc(-c3ccc(F)cc3)n2)cc(OCC)c1OCC	25
Cc1ccc(N2CC3(CCN(C(=O)c4ccn[nH]4)C3)CC2=O)cc1 (stereo unspecified)	0
Cn1cc(C[C@H]2[C@@H](O)CCN2C(=O)Cc2ccsc2)cn1	0
C=C(C)CNC(=O)CC1COc2ccc(C(=O)N3CCOCC3)cc2N1C (stereo unspecified)	9
COCCNC(=O)C[C@H]1CC[C@H]2[C@@H](COC[C@H](O)CN2C(=O)c2cc(Cl)cc(Cl)c2)O1	-47
COc1ccc(-c2nc(CNC(=O)c3coc(-c4ccccc4)n3)no2)cc1	-68
Cc1cc(=O)n(CC(=O)NCCN2C(=O)CSC2=O)c2ccccc12	10
Cc1ccc(S(=O)(=O)N2CCC(c3nc(C(=O)N(C)C)c(C)o3)CC2)cc1C	48
Cn1nccc1CN1CC[C@@H]2OCCN(S(C)(=O)=O)[C@@H]2C1	-40
Cc1cnn(Cc2nc(-c3ccc(NC(=O)c4cccc(Cl)c4)cc3)oc2C)c1	53
COc1ccc(/C=C\c2cc(OC)c(OC)cc2CC[N+](C)(C)C)cc1OC	-2
CC(=O)Nc1ccc(S(=O)(=O)N2CCC3(CC2)Nc2ccc(C)c(C)c2-n2cccc23)cc1	-9
CCN(C)S(=O)(=O)NCC1CCN(Cc2ccccc2F)C1 (stereo unspecified)	-3
C[C@@H]1CN([C@@H](C)CO)C(=O)Cc2cc(NC(=O)CCCCCC(=O)Nc3ccccc3N)ccc2O[C@H]1CN(C)S(=O)(=O)c1cccs1	10
CCN1c2cc(C)ccc2-n2cccc2C12CCN(S(=O)(=O)c1ccc3c(c1)CCCC3)CC2	-81*
CCn1ncnc1CN(Cc1ccncc1)Cc1ccc(F)cc1	-2

Among those listed so far, 19 have a Cl atom.
SMILES	Tgondii IFNg
Cc1nc(-c2ccccc2)sc1C(=O)Nc1c(C)nc2ccc(Cl)cn2c1=O	44
COc1ccc(NC(=O)N2CCC3(CC2)NC(=O)c2ccc(Cl)cc2N3C)c(C)c1	460
C=C1N(c2cccc(Cl)c2)C(=O)OC1(C)C	9
O=C(Nc1nc2ccc(F)cc2s1)c1cccnc1Cl	3
Cc1oc(-c2ccccc2)cc1C(=O)N1CCN(c2ncc(C(F)(F)F)cc2Cl)CC1	-65
O=C(Nc1ccccc1)Nc1ccc(Cl)cc1SCc1ccccc1	-77*
N#Cc1c(=O)[nH]c(O)c2c(=N)oc3ccc(Cl)cc3c12	60
COc1c(Cl)cc(Cl)cc1CNCCCN1CCOCC1	-26
COc1ccc(S(=O)(=O)N2CCC3(CC2)Nc2ccc(Cl)cc2-n2cccc23)cc1	-52
COc1ccc(OS(=O)(=O)c2sc3ccc(Cl)cc3c2C)cc1	-104*
FC(F)(F)c1cc(NC(=S)Sc2ccc(Cl)cc2)cc(C(F)(F)F)c1	-22
OC(CCN1CCOCC1)(c1ccc(Cl)cc1)C1CCCCC1 (stereo unspecified)	-15
CC(=O)N1CCC(C(=O)NCc2ccccc2)(N(Cc2cccc(Cl)c2)C(=O)c2ccc(C)cc2)CC1	-48
O=C1Cc2cc(CCN3CCN(c4nsc5ccccc45)CC3)c(Cl)cc2N1	-81*
COC(=O)c1c(NCCc2c[nH]c3ccccc23)c2cccc(Cl)c2[nH]c1=O	33
CCc1cc(Cl)c(OC)c(C(=O)NC[C@@H]2CCCN2CC)c1O	-14&1
CCc1nc(-c2ccc(Cl)cc2)cs1	17
COCCNC(=O)C[C@H]1CC[C@H]2[C@@H](COC[C@H](O)CN2C(=O)c2cc(Cl)cc(Cl)c2)O1	-47
Cc1cnn(Cc2nc(-c3ccc(NC(=O)c4cccc(Cl)c4)cc3)oc2C)c1	53

The list is partial; count on the stated rates, not on these rows.
